MT1-MMP act inh = MT1-MMP (human) activation inhibition. HT1080 RFP-PRO-GFP cells, GFP/RFP ratio fluorescence, overnight; percent of plate control window, DMSO zero. GFP/RFP ratio change, % at 20 µM. 360,000 tested, 0.061% active;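 active means GFP/RFP ratio change of at least 30% with cell ATP level not reduced by more than half and red fluorescence within 50% of control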; further: strong numbers were not always called active
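Assay system: RFP-PRO-GFP reporter HT1080 cells; read-out basis: GFP/RFP fluorescence ratio; benchmarks: DMSO wells and RFP-L50D-GFP cells; doses: 20 µM single dose, 1% DMSO; schedule: overnight cell settling, then overnight compound exposure, 37 °C, 5% CO2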
Env fusion inh = HIV envelope-mediated fusion inhibition; HeLa-JRFL Env/CEM21 cell fusion, luciferase; inhibition, % at 12.3 µM; 360,000 tested, 1.1% active;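 active means mean replicate inhibition score of at least 50 and every replicate individually at or above 50; inconclusive means only one of the two criteria met; inactive means mean below 50 and not all replicates reaching 50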;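 further: 0% = plate neutral controls and 100% = maraviroc near 300 nM; one replicate is shown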
UUG fidelity = yeast start codon fidelity modulation. S. cerevisiae UUG-firefly luciferase reporter, luminescence/redox ratio. activity score, % at 18.7 µM. 350,000 tested, 0.13% active. AID 602363;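 active means replicate mean at a twofold rise or more, about +100% in these data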;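 further: firefly luciferase made from a UUG start codon reports start codon fidelity; reporter light over untreated wells divided by growth signal over untreated wells; some hits fall short of that in this replicate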
Rce1 inhib = blocks yeast Ras-converting enzyme | AID 2563 | 290,000 tested, 0.27% active | calls only | yeast membranes, quenched prenylated peptide cleavage fluorescence | Q03530;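 active means fall in fluorescence gain of 50% or more versus controls, with final raw signal at or below 3038400; inconclusive means same 50% fall but final raw signal above 3038400; inactive means fall in fluorescence gain under 50%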;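 further: plate controls were neutral control wells for no effect and wells lacking membranes for full effect; tested at 10 µM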
CSC inhib = blocks cancer stem cells | cancer stem cell-like cells viability, luminescence | inhibition, % at 7.5 µM | 300,000 tested, 1.1% active;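 active means mean at 75% or more and at least half the replicates too; inconclusive means mean and replicates disagree; tested in HMLE shEcad cells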;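 further: 0% = median of negative and 100% = median of positive control wells; the first replicate is given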
eIF4H inh = inhibitors of RNA binding by human eIF4H; Q15056; eIF4H fluorescence polarization binding assay; inhibition, % at 35 µM; 290,000 tested, 0.94% active; AID 2012;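 active means 50% or more with normal probe brightness, or confirmed in later tests; inconclusive means above 50% with abnormal brightness, or retests that disagree; inactive means below 50% or failed in later tests; about a fifth of its hits are not listed in these tables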;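 further: calls also rest on retests at 20 µM and on dose response follow-up; 0% = protein and probe with vehicle and 100% = probe without protein; strong numbers were not always called active; many hits fall short of the cut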
PABP polyA inh = PABP-poly(A) binding inhibition | P11940 | PABP-poly(A) RNA binding, fluorescence polarization | inhibition, % at 35 µM | 290,000 tested, 1% active | AID 2014;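 active means 50% or more with normal probe brightness, or confirmed in later tests; inconclusive means above 50% with abnormal brightness, or retests that disagree; inactive means below 50% or failed in later tests; about a fifth of its hits are not listed in these tables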;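 further: calls also rest on retests at 20 µM and on dose response follow-up; controls were probe without protein and protein plus probe with vehicle; some compounds called inactive have numbers as strong as hits; many hits fall short of the cut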
Target sequence (P11940 whole entry, looked up): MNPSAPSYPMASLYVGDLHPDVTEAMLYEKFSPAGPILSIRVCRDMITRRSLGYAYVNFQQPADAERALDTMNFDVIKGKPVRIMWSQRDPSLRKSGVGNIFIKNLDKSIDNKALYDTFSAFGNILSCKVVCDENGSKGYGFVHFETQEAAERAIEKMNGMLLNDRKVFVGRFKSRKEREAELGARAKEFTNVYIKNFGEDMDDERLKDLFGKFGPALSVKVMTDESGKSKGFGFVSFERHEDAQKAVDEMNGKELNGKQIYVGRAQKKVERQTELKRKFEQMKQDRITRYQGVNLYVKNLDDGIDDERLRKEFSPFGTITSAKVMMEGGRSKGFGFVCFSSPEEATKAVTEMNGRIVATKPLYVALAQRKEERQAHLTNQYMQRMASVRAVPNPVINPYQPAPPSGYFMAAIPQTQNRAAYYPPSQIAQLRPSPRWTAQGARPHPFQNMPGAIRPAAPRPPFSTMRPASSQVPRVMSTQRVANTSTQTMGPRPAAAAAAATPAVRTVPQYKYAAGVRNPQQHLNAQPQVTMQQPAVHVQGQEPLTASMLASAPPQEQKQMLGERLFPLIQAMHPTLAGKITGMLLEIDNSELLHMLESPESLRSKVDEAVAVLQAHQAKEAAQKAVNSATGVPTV
eIF4H inh retest = also measured in eIF4H inh; calls as there; inhibition, %; compound at 20 µM; confirmation average;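 mean of two retest wells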
PABP polyA inh retest = second read-out of PABP polyA inh, no call of its own (marks repeat the call); inhibition, %; compound at 20 µM; confirmation repeats;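 mean of two retest wells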
MT1-MMP act inh RFP = recorded beside MT1-MMP act inh, whose call it bears; RFP signal change, %; measured here: RFP expression control read;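 0 = vehicle wells; hits needed this value within 50% of zero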
* hit, by the source's call; i = inactive; u = inconclusive; x = not tested or not shown; + = active, no number; & = joins results of further samples; [ ] = another dose, or the depositor's remark. An excerpt; count on the stated rates, not on these rows.

SMILES	MT1-MMP act inh	MT1-MMP act inh RFP	Env fusion inh	UUG fidelity	Rce1 inhib	CSC inhib	eIF4H inh	PABP polyA inh	others
Cc1cccc(C(C)C)c1NC(=O)C(C)OC(=O)Cc1n[nH]c(=O)c2ccccc12 (stereo unspecified)	2.4	1.4	-289.8	-4.1	i	-3.8	x	x
C=CCOn1c(=O)c(-c2ccc(OCC)cc2)[n+]([O-])c2ccccc21	0.8	1.8	-18.8	-5.2	i	-3.5	-9.6	5.7
Cc1nnsc1C(=O)N/N=C/c1ccccc1	-2.2	0.0	2.0	x	i	-20.1	-4.5	6.9
CCN=C(NCC)SC1CC(=O)N(c2ccccc2)C1=O (stereo unspecified)	2.7	3.1	-29.1	-15.4	i	-6.9	1.1	0.2
CCOc1ccc(NC(=O)CN(C)C2=NS(=O)(=O)c3ccccc32)cc1	4.5	0.8	10.9	-9.9	x	x	x	x
O=C(N/N=C/c1ccc(O)cc1)/C(=C/c1ccccc1)CCO	3.0	-5.8	-0.5	-12.1	i	8.5	-2.0	0.1
CN1C(=O)/C(=C\C=C2/CCCN2C)N(C)C1=S	-9.0	-5.5	-18.8	-17.9	i	-3.1	u	8.0
CCOc1ccc(NC(=O)c2cc3n(n2)C(C(F)(F)F)CC(c2ccco2)N3)cc1 (stereo unspecified)	1.9	-2.9	x	-1.1	i	-15.3	-3.5	3.4
O=C(Nc1ccccc1N1CCOCC1)c1ccccc1[N+](=O)[O-]	-1.1	-4.0	-52.3	-12.9	i	0.6	0.2	0.7
CN1CCN(c2ccc(CNC(=O)C3Cc4c(-c5ccccc5)ccnc4O3)cc2)CC1 (stereo unspecified)	5.1	0.9	-133.7	-21.7	x	x	x	x
COc1ccccc1CNc1ncnc2cc(OC)c(OC)cc12	4.4	-4.6	35.0	x	i	5.7	-8.9	-13.5
COc1ccccc1-c1cc(C(=O)NC(C)C)no1	-2.0	0.7	x	-9.0	i	x	-16.6	-2.7
CC12CN3CCN(CC(C3)/C1=N\NC(=O)c1ccccc1N)C2	3.4	3.0	-11.6	x	i	-9.2	2.6	1.8
FC(F)(F)c1cccc(NC(=S)NNC(=S)NCc2ccccc2)c1	9.8	4.6	-13.2	-9.6	i	57.2	17.1	5.3
CCC(=O)Nc1ccccc1C(=O)OCC(=O)c1ccc2ccccc2c1	9.6	-8.2	-35.6	0.8	i	-6.3	-8.0	3.0
COc1ccc(-c2cn[nH]c2-c2ccc(OCc3ccc([N+](=O)[O-])cc3)cc2O)cc1	-3.9	-12.8	73.0*	x	i	52.7	-8.6	-10.6
O=C(Cn1c2ccc(F)cc2c2nc3n(c(=O)c21)CCS3)Nc1ccccc1C(F)(F)F	-4.2	0.0	5.2	x	i	-3.7	-5.3	12.9
CCCc1nnc(NC(=O)c2cc(OC)cc(OC)c2)s1	-0.4	-1.3	-157.3	-7.3	i	x	-3.9	-7.2
COc1ccc(C(=O)N2CCN(c3nc4ccccc4o3)CC2)cc1OC	-8.0	-18.7	42.8	-8.9	i	-21.3	102.0	-6.0	eIF4H inh retest=-1.7;PABP polyA inh retest=6.6
CCOC(=O)C1=C(C)Nc2ccccc2N=C1NC(=O)c1cccc(S(=O)(=O)NCc2ccccc2)c1	4.1	-0.1	-49.5	-11.4	i	-5.7	-5.9	-2.5

Overlap with the part before: 4 compounds, then new ones.
SMILES	MT1-MMP act inh	MT1-MMP act inh RFP	Env fusion inh	UUG fidelity	Rce1 inhib	CSC inhib	eIF4H inh	PABP polyA inh	others
O=C(Cn1c2ccc(F)cc2c2nc3n(c(=O)c21)CCS3)Nc1ccccc1C(F)(F)F	-4.2	0.0	5.2	x	i	-3.7	-5.3	12.9
CCCc1nnc(NC(=O)c2cc(OC)cc(OC)c2)s1	-0.4	-1.3	-157.3	-7.3	i	x	-3.9	-7.2
COc1ccc(C(=O)N2CCN(c3nc4ccccc4o3)CC2)cc1OC	-8.0	-18.7	42.8	-8.9	i	-21.3	102.0	-6.0	eIF4H inh retest=-1.7;PABP polyA inh retest=6.6
CCOC(=O)C1=C(C)Nc2ccccc2N=C1NC(=O)c1cccc(S(=O)(=O)NCc2ccccc2)c1	4.1	-0.1	-49.5	-11.4	i	-5.7	-5.9	-2.5
CC(C)(C)c1ccc(OCc2ccc(C(=O)N/N=C/c3ccc([N+](=O)[O-])cc3)o2)cc1	-4.0	-4.1	x	-20.3	i	-13.8	-4.3	1.6
CCCN1CCN(c2ccc(S(N)(=O)=O)cc2[N+](=O)[O-])CC1	2.5	3.0	27.4	x	i	-4.8	3.5	6.8
COc1ccc(-n2ncc3c(NCc4ccccn4)ncnc32)cc1	5.8	2.9	-102.1	-9.2	i	-2.7	-9.2	-5.4
O=C(Nc1ccccc1C(=O)NCc1cccnc1)c1ccccc1Cl	0.3	4.7	-5.9	-11.7	i	-10.4	-3.5	15.3
CSCC(=O)N1CCc2ccc(NC(=O)c3ccccc3Cl)cc2C1	0.2	1.0	-55.0	4.0	i	-0.7	8.3	6.0
Cc1noc(/C=C/N(C)C)c1S(=O)(=O)N(C)CC(=O)N1CCc2ccccc21	x	x	x	x	i	7.0	-8.4	-7.5
CCc1ccc(NC(=O)C(C)OC(=O)CCN2C(=O)C3CC=CCC3C2=O)cc1 (stereo unspecified)	-4.6	-0.3	-1.5	-14.2	x	x	x	x
C[C@@H]1CN([C@@H](C)CO)S(=O)(=O)c2ccc(Br)cc2O[C@H]1CN(C)C(=O)c1ccccc1F	1.0	3.3	6.8[16.7 µM]	-3.2&1.8	x	x	x	x
O=C(Cc1n[nH]c(=O)c2ccccc12)OCC(=O)c1ccccc1Cl	1.1	7.1	-15.1	-12.3	i	-9.2	x	x
COc1ccc(N2CCN(C(=O)c3ccc4c(=O)n(CCc5ccc(OC)c(OC)c5)c(=O)[nH]c4c3)CC2)cc1	-1.4	-19.3	-0.7	10.4	i	-7.9	4.3	-1.3
COc1cccc2c(=O)cn[nH]c12	-6.9	-1.4	x	-11.6	i	-3.6	-5.6	-6.5
COc1cc(/C=N/NC2=NCCCCC2)ccc1O	-4.2	0.8	8.7	-4.4	i	-4.2	11.9	0.4
Cc1cc(C)cc(NC(=O)C(Sc2ncnc3ccccc23)c2ccccc2)c1 (stereo unspecified)	2.7	4.6	x	-22.2	i	32.3	0.0	-1.7
Nc1nc(Cl)nc2ccc(Br)cc12	-2.8	-1.7	-78.6	x	i	4.2	20.4	-5.4
CCOc1ccccc1NC(=S)NC1CC2CCC1C2 (stereo unspecified)	6.6	-2.1	x	-30.5	i	-1.2	10.3	2.3
O=C(Nc1ccc(N2CCOCC2)c(Cl)c1)c1cccnc1Cl	1.0	-2.0	x	-10.6	i	-6.8	-1.9	0.5
O=C(CSc1nc2cccnc2n1Cc1ccccc1)N1CCCC1	0.9	4.7	-4.9	-1.0	i	6.9	3.5	0.2
CC1=C(C(=O)N(C(C)C)C(C)C)CC(CC(=O)NC2CC2)C(=O)N1Cc1ccc(F)cc1 (stereo unspecified)	0.8	0.9	-6.6	-9.2	x	x	x	x
CCn1c(SCC(=O)NCc2ccccc2)nc2ccccc2c1=O	3.6	-3.8	x	x	i	1.1	-0.8	-9.1
Cc1ncc(CN2CCCC(CCC(=O)NCc3ccccc3F)C2)s1 (stereo unspecified)	2.3	1.0	9.3	x	i	-14.7	0.0	4.5
CCS(=O)(=O)Nc1ccc(-c2nnc(SCC(=O)c3ccc(NC(C)=O)c(OC)c3)o2)cc1	-1.5	-4.3	x	x	i	2.0	38.3	0.6
CCNC(=S)Nc1ccc2cn[nH]c2c1	-0.3	-0.1	-9.5	x	i	-11.9	-1.6	-12.1
O=C1CSC(c2cccnc2)N1C1CCCCC1 (stereo unspecified)	0.2	0.3	-52.3	-16.1	i	x	-6.1	-0.6
CCOC(=O)c1sc(NC(=O)Nc2cccc(Cl)c2)cc1C	-14.1	-37.0	x	9.2	i	-4.6	2.9	33.5
Cc1cc(OCC(O)CN2CCN(c3ccccn3)CC2)cc(C)c1Cl (stereo unspecified)	-1.3	-0.3	4.5	-14.6	i	-1.0	-1.4	9.4
CC1CC(C)CN(C(=O)c2ccc3nc[nH]c3c2)C1 (stereo unspecified)	-1.8	2.5	-10.2	-23.4	i	-1.5	-4.2	-4.4
O=C1ON=C(c2ccccc2)/C1=C\c1ccco1	-0.4	2.7	-2.0	-17.9	i	12.4	8.7	-3.1
CCOC(=O)c1ccc(N2CN=C3SCC(=O)N3C2)cc1	6.8	1.6	10.2	1.1	i	4.9	-1.6	0.3
CCN(CC)CCNC(=O)CSc1c2c(nc3cc(Cl)ccc13)CCCC2	0.6	-0.7	-24.6	x	+	4.2	0.3	0.4
O=C(Nc1nc2ccccc2s1)NC1CCCCC1	2.1	-3.8	-168.6	x	i	-13.5	3.1	-6.3
CCOC(=O)N1CCC(N(CCN(C)C)C(=S)Nc2cccc(SC)c2)CC1	6.1	0.7	u	-34.6	i	-8.0	5.9	-3.8
CSC1=NC(C)(C)CC2(C)Nc3ccccc3N12 (stereo unspecified)	-8.1	9.6	16.4	-2.2	u	1.4	u	-0.1
Cc1nc2cc(F)ccc2n1C1CCN(C(=O)c2c(F)cccc2F)CC1	-1.2	-10.8	-4.8	x	i	-3.4	16.2	-5.5
Cn1c(=O)c2c(nc(CN3CCCCC3)n2Cc2c(F)cccc2Cl)n(C)c1=O	-4.4	-0.8	-101.5	-2.7	x	64.6	7.1	-7.4
Clc1ccc(-c2nc(N3CCOCC3)nc3ccccc23)cc1	0.8	-4.8	9.2	-7.1	i	-1.8	-5.2	4.1
CN(/C(=N/S(=O)(=O)c1cccs1)c1ccccc1)c1ccc(O)cc1	-2.4	0.4	2.9	18.6	i	-14.3	-10.5	6.3
Cc1cc(C)nc(SCc2ccc(Br)cc2)n1	-3.5	-4.0	-46.5	7.5	i	-1.8	-3.7	0.3
NC(=O)c1ccc(CN2CCC(Cc3ccccc3)CC2)cc1	1.9	0.5	7.1	-5.3	i	-0.2	-0.1	-5.5
CCCOC(=O)c1ccc(Nc2nc(C)cc(=O)[nH]2)cc1	0.6	-1.6	x	x	i	-11.4	-9.4	0.2
c1ccc(Nc2c(-c3ccco3)nc3ccccn23)cc1	6.1	4.0	-6.9	0.0	i	-19.3	39.2	-1.8
O=S(=O)(Nc1ccc(N2CCOCC2)cc1)c1cc(Cl)ccc1Cl	x	x	-9.3	24.5	i	x	11.3	1.1
COC(=O)c1cc(S(=O)(=O)N2CCCCCC2)cn1C	2.1	5.0	-0.4	-6.4	i	-13.2	x	x
CC(C)(C)c1ccc(OCC(=O)NCc2ccco2)cc1	-6.7	-3.4	-46.2	-4.4	x	-8.4	-3.2	7.8
Cc1cc(C(=O)O)c(S(C)(=O)=O)s1	-0.4	1.4	-46.5	-6.3	x	-1.4	-9.7	-2.6
CCCC#Cc1ccc2c(c1)O[C@@H](CN(C)Cc1ccc3c(c1)OCO3)[C@H](C)CN([C@@H](C)CO)S2(=O)=O	-11.5	-12.2	-103.6	-2.7&-7.2	x	x	x	x
C=CCOc1ccc(/C=C/C(=O)OCC(=O)N(C)C2CCS(=O)(=O)C2)cc1 (stereo unspecified)	0.2	-4.1	-3.7	-7.8	i	-10.4	-5.4	15.6
CN(c1ncc(C(F)(F)F)cc1Cl)N1C(=O)c2cccc(N)c2C1=O	-5.7	-6.8	17.6	x	i	-4.5	1.5	0.2

From PubChem BioAssay
